SARS PLpro yeast – SARS-CoV PLP inhibition in yeast; 330,000 compounds, 0.19% hits; S. cerevisiae expressing SARS-CoV PLpro, growth rescue; control for the full effect not named in the record; Potency, µM (titrated, usually from 32.9 µM), for inactives: top-dose activity, positive = growth rescue; active means well fitted rising curve with a large enough effect; inconclusive means small, poorly fitted or top-dose-only effect; inactive means no such curve, though single readings can be large or run the other way; further: 0% is about no effect; nearly all actives have a fitted effect of over 55% in size; growth read by luminescence after 48 h
StopGo reporter – lowers the luciferase signal of an FMDV 2A StopGo reporter; AID 1159524; 410,000 compounds, 1.2% hits; human cells with a luciferase reporter of 2A StopGo recoding; control for the full effect not named in the record; Potency, µM (top dose mostly 57.9 µM), for the others: at the top dose signal change, negative = less light; active = well fitted falling curve with a large enough effect; inconclusive = small, poorly fitted or top-dose-only effect; inactive = no such curve, though single readings can be large or run the other way; tested in HEK293T cells; further: on the % scale 0 is the no-effect control and ±100 the full control effect; nearly all actives have a fitted effect of over 45% in size; luciferase light after 4 h
RE007 growth inh – less growth of the S. pombe RE007 Vpr strain. S. pombe RE007 Vpr strain, BacTiter-Glo ATP luminescence, 24 h; control for the full effect not named in the record. Potency, µM (highest dose often 92.2 µM), for the others: at the top dose activity change, negative = less growth. 360,000 compounds, 0.21% hits; active = well fitted falling curve with a large enough effect; inconclusive = small, poorly fitted or top-dose-only effect; inactive = no such curve, though single readings can be large or run the other way;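 further: on the % scale 0 is the no-effect control and ±100 the full control effect; nearly all actives have a fitted effect of over 50% in size; the assay follows cell death caused by Vpr and the record does not say whether a fall means rescue or toxicity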
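Fission yeast strain RE007, carrying one chromosomally integrated HIV-1 vpr copy, was seeded at OD 0.01 in PMG+AL medium with 23 nL pinned compound. After 24 h at 30 °C and 99% humidity, viability was read by BacTiter-Glo luminescence.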
Numbers without * were called inactive; ? = inconclusive; & = joins results of further samples; [ ] = remark or other dose. Potency means the concentration at half of the fitted maximal effect. The list is partial (hit frequency here may not be typical).

#	SMILES	StopGo reporter	RE007 growth inh	SARS PLpro yeast
1	Cc1cc(C)n(-c2ccc(C(=O)NCC(=O)Nc3cc(Cl)ccc3Cl)cc2)n1	-19%	3%	0%
2	CN(CCc1ccccc1)C(=O)c1ccc(NC(=O)Cc2cccc([N+](=O)[O-])c2)cc1	?	1%	-4%
3	CC(=O)c1sc(NC(=O)c2ccc(C)c(C)c2)nc1C	54%[activator]	2%	3%
4	CN1CCN(CC(=O)NC(=O)NC2CCCCC2)CC1	-1%	-2%	7%
5	CCC(C)Sc1ccc([C@H]2N[C@@](C)(C(=O)OC)[C@H]3C(=O)N(C)C(=O)[C@@H]23)cc1 (some centres not stated)	-13%	12%	-13%
6	CCCn1c(SCC(=O)Nc2cccnc2Cl)n[nH]c1=O	-5%	-3%	-4%
7	CC(C)CCN1C(=O)c2ccc(C(=O)OCC(=O)N(CC(C)C)C3CCS(=O)(=O)C3)cc2C1=O (configuration not stated)	-13%	5%	0%
8	CC(=O)c1ccc(OCCCC(=O)NC(C)c2ccc(S(N)(=O)=O)cc2)cc1 (configuration not stated)	-12%	3%	2%
9	CC(C)NC(=O)N(C)C[C@H]1Oc2c(NC(=O)c3ccc(-c4nccs4)cc3)cccc2C(=O)N([C@@H](C)CO)C[C@H]1C	-20%	-7%	-48%
10	CCN1C(=O)[C@H]2[C@H]3CN=C(SCC4CC4)N3[C@@](Cc3ccccc3)(C(=O)OC)[C@H]2C1=O	7%	-13%	-10%
11	CC[C@@]12C(=O)N(c3cccc(F)c3)C(=O)N1[C@H](c1ccc(Br)cc1)[C@@H]1C(=O)N(C(C)(C)C)C(=O)[C@@H]12	-8%	7%	1%
12	COc1ccc(Cl)cc1NC(=O)CN(C)C(=O)c1cc2c(F)cccc2s1	9%	-10%	-4%
13	COc1ccc(OC)c(-n2c(Cn3c(-c4ccccn4)nc4ccccc43)n[nH]c2=S)c1	-4%	35%	-1%
14	CCOC(=O)[C@H]1[C@H]2COc3cc(OC)ccc3[C@@H]2N2C(=O)c3cc(F)ccc3NC(=O)[C@@]12C	-27%	6%	1%
15	Nc1cccc(Oc2ccc([N+](=O)[O-])cc2)c1	-9%	-7%	-6%
16	C[C@H](CO)N1C[C@H](C)[C@@H](CN(C)Cc2ccncc2)Oc2c(NC(=O)CCC(F)(F)F)cccc2C1=O	25%	12%	5%
17	COc1ccc(C(=O)Nc2cc(-c3ccccc3)nn2-c2ccccc2F)cc1	4%	13%	8%
18	CC(NC(=O)COC(=O)CNC(=O)C1CCCCC1)c1ccccc1 (configuration not stated)	0%	2%	1%
19	COc1cc(/C=N/NC(=O)c2ccc(NS(=O)(=O)c3cccs3)cc2)cc(OC)c1O	-11%	-7%	0%
20	Cc1ccc(CN2C(=O)C(CC(C)C)Nc3ncnc(N4CCOCC4)c32)cc1 (configuration not stated)	-10%&0%	-9%&-7%	-1%
21	CCC1Nc2ncnc(N3CCc4ccccc4C3)c2N(Cc2ccc(Cl)cc2)C1=O (configuration not stated)	-18%	5%	5%
22	CCc1ccc(NC(=O)C2=CC=CN3CCS(=O)(=O)N=C23)cc1	17%	1%	1%
23	CCc1ccccc1NC(=O)Nc1cccs1	26%	-8%	-2%
24	CCOc1ccc(NC(=O)CN(C)C(=O)C2CCN(C(=O)c3ccc(Cl)cc3)CC2)cc1OCC	-23%	4%	-12%
25	COC(=O)C1=C(c2ccc(F)cc2OCc2ccccc2)C[C@@H]2CC[C@H]1N2C(=O)NC1CCN(Cc2ccccc2)CC1	?	-1%	1%
26	CC1(c2ccc3c(c2)OCCO3)NC(=O)N(CC(=O)Nc2ccccc2)C1=O (configuration not stated)	-8%	-9%	-11%
27	CCOc1ccc([C@@H]2CC=C(C(=O)O)CN2S(=O)(=O)c2ccc(C)cc2)cc1	30%	1%	7%
28	O=C(CN1CCN(C(=O)c2cncn2-c2ccc(F)cc2)CC1)Nc1ccccc1C(F)(F)F	-8%	-24%	-8%
29	CCc1noc(C)c1C(=O)N1CCN(S(=O)(=O)c2ccccc2C(F)(F)F)CC1	-5%	0%	-7%
30	Cc1ccc(S(=O)(=O)N2[C@@H](c3cccc(C)c3)C(C(=O)O)=C[C@H]2CC2CCCC2)cc1	3%	-7%	1%
31	COC(=O)C1=C(c2ccc(OC(F)(F)F)cc2)C[C@@H]2CC[C@H]1N2C(=O)NCCc1ccccc1	0%	-3%	1%
32	CCc1ccc(N2CC(C(=O)Nc3cccc(C(=O)NC4CC4)c3)CC2=O)cc1 (configuration not stated)	-18%	2%	-1%
33	CC(NC(=O)c1ccco1)C(=O)OCC(=O)N1CCCCCC1 (configuration not stated)	-11%	19%	-3%
34	C[C@H](NC(=O)c1nc[nH]c1C(=O)N[C@@H](C)c1ccccc1)c1ccccc1	-23%	-2%	-5%
35	Cc1ccc(-c2cc(-c3ccc(C)cc3)[n+](-c3ccccc3)c(-c3ccc(C)cc3)c2)cc1	7.1µM*	-13%	-2%
36	COc1ccc([C@@H]2[C@@H]3C(=O)N(C(C)(C)C)C(=O)[C@@H]3[C@]3(Cc4ccccc4)C(=O)N(c4cccc(F)c4)C(=O)N23)cc1	8%	-2%	2%
37	COc1ccc(NC(=O)Nc2ccc3c(c2)CC(=O)N([C@H](C)CO)C[C@@H](C)[C@H](CN(C)C(=O)Nc2ccccc2)O3)cc1	0%	11%	3%
38	O=C(N/N=C/c1ccc(O)c(O)c1)c1ccc(-n2cnnn2)cc1	-5%	-7%	-32%
39	COc1ccc2sc(-c3ccc(N(C)C)cc3)c(-c3ccc4cc[nH]c4c3)c2c1	39%[activator]	6%	-3%
40	CCOCCCn1c(NN)nc2ccccc2c1=O	0%	5%	1%
41	CCOc1ccccc1NC(=O)c1cc(=O)[nH]c2ccc(S(=O)(=O)N3CCOCC3)cc12	-17%	-20%	-5%
42	Cc1ccc(S(=O)(=O)N2CCOCC2)cc1NC(=O)COC(=O)c1cc[n+]([O-])cc1	-18%	-7%	-4%
43	Cc1nnc(NC(=O)c2ccccc2Oc2ccccc2)s1	-2%	-2%	1%
44	O=C1OC[C@H]2CCCN2C(=O)[C@@H](CC(=O)N(CCO)Cc2ccccc2)C/C=C\C[C@@H]1Cc1ccc(F)cc1	-22%	8%	-30%
45	O=C(Nc1cccc(S(=O)(=O)N2CCCCCC2)c1)c1ccc(=O)[nH]c1	-10%	5%	-10%
46	CCOC(=O)Cc1csc(NC(=O)COC(=O)/C=C/c2ccc(OC)cc2)n1	-30%	10%	1%
47	CNS(=O)(=O)c1cccc(C(=O)OCC(=O)c2ccc[nH]2)c1	18%	-2%	-1%
48	O=C(CN1CCN(c2ccccc2O)CC1)Nc1ccc2c(c1)OCCCO2	11%	-13%	-2%
49	O=C(Nc1ccccc1)c1nc[nH]c1C(=O)NCCCCNC(=O)c1[nH]cnc1C(=O)Nc1ccccc1	?	-3%	-4%
50	CC(C)=CCC/C(C)=C/CNC(=O)C[C@H]1C[C@H](C(=O)N2CCCCC2)[C@@]2(CCc3ccccc3)c3[nH]c4cc(CCC(=O)N(C)C)ccc4c3CCN2C1=O	-8%	-4%	23%
51	O=C(Oc1ccccc1C(=O)Oc1ccccc1)c1cccnc1	13%	11%	2%
52	COc1ccc(S(=O)(=O)Nc2ccc3c(c2)C(=O)N([C@H](C)CO)C[C@@H](C)[C@@H](CN(C)S(=O)(=O)c2ccc(Cl)cc2)O3)cc1	20%	-5%	-1%
53	CCC1CCC2(CC1)NC(=O)N(CC(=O)Nc1cccc(S(=O)(=O)N(C)c3ccccc3)c1)C2=O (configuration not stated)	-25%	4%	-4%
54	Cc1cccc(C(=O)NC(C(=O)Nc2nc(-c3ccccn3)cs2)C(C)C)c1 (configuration not stated)	-28%	-3%	-1%
55	COc1ccc(C(=O)N/C(=C\c2ccc3c(c2)OCO3)C(=O)Nc2cccc(C(=O)O)c2)cc1	-6%	1%	0%
56	Cc1nn(-c2ccccc2)c(C)c1CN(C)C(=O)c1ccc(S(=O)(=O)NCc2ccco2)cc1	-28%	-11%	2%

More structures follow:
#	SMILES	StopGo reporter	RE007 growth inh	SARS PLpro yeast
57	Cc1ccccc1OCC(=O)OCC(=O)c1ccc[nH]1	-9%	-5%	0%
58	OC1(C#CCN2CCOCC2)CCCCC1	0%	11%	3%
59	CN1C(=O)CC(c2ccccc2)CC1=O	-19%	-12%	2%
60	Cc1ccc(CSc2ccc(S(=O)(=O)N3CCOCC3)cn2)cc1	-23%	-15%	3%
61	CCOc1ccc(NC(=O)CN(C)C(=O)CCSc2ccc(F)cc2)cc1OCC	?	-3%	-3%
62	CC1(C2CC2)NC(=O)N(CC(=O)Nc2ccc(F)cc2F)C1=O (configuration not stated)	-14%	7%	3%
63	C=CCn1c(CCSCc2ccc(OC)c(C)c2)n[nH]c1=S	-14%	9%	0%
64	Cc1onc(-c2c(F)cccc2Cl)c1C(=O)OCc1nnc(-c2ccccc2)o1	-30%	-3%	-8%

Overlap with the part before: 4 compounds, then new ones.
#	SMILES	StopGo reporter	RE007 growth inh	SARS PLpro yeast
61	CCOc1ccc(NC(=O)CN(C)C(=O)CCSc2ccc(F)cc2)cc1OCC	?	-3%	-3%
62	CC1(C2CC2)NC(=O)N(CC(=O)Nc2ccc(F)cc2F)C1=O (configuration not stated)	-14%	7%	3%
63	C=CCn1c(CCSCc2ccc(OC)c(C)c2)n[nH]c1=S	-14%	9%	0%
64	Cc1onc(-c2c(F)cccc2Cl)c1C(=O)OCc1nnc(-c2ccccc2)o1	-30%	-3%	-8%
65	Cc1nc([N+](=O)[O-])c(Br)n1Cc1ccc(Cl)c(Cl)c1	18µM*	41%	1%
66	CN(Cc1ccccc1)C(=O)c1ccc(NC(=O)C2CCCN(C(=O)OC(C)(C)C)C2)cc1 (configuration not stated)	?	-10%	7%
67	CCCCCCSc1cc(-c2nc3ccc(C)cn3c2NCCCC)ccc1OC	35µM*	-6%	0%
68	COC(=O)[C@]1(CC(C)C)N[C@H](c2ccc(-c3ccc(OC)cc3)cc2)[C@@H]2C(=O)N(C)C(=O)[C@@H]21	-11%	6%	-9%
69	C=C(C)C(COc1c2occc2cc2ccc(=O)oc12)OC(C)(C)C(O)COc1c2occc2cc2ccc(=O)oc12 (configuration not stated)	-14%	13%	-1%
70	O=c1c(-c2ccc(O)cc2)coc2c([C@@H]3O[C@H](CO)[C@@H](O)[C@H](O)[C@H]3O)c(O)ccc12	-15%	-17%	1%
71	O=C1CC/C=C\C[C@@H](CC(=O)N(CCO)Cc2ccccc2)C(=O)NC[C@@H](c2ccccc2)O1	-2%	15%	0%
72	COc1ccc2sc(N(CCN(C)C)C(=O)/C=C/c3cccs3)nc2c1	?	0%	-1%
73	CC(c1ccccc1)N(C)C(=O)CN1CCN(S(=O)(=O)c2ccc3c(c2)OCCCO3)CC1 (configuration not stated)	?	8%	5%
74	C=CCn1c(O)c(N=Nc2ccccc2O)c2ccccc21	-24%	?	-1%
75	O=C(NCC(O)c1ccc([N+](=O)[O-])cc1)C1CCCCC1 (configuration not stated)	-15%	-12%	0%
76	Nc1nnc(SCC(=O)Nc2cc(S(=O)(=O)N3CCOCC3)ccc2N2CCCC2)s1	-21%	-2%	2%
77	c1ccc(CSc2nnc3ccc(-c4ccncc4)nn23)cc1	-15%	4%	2%
78	C=C(C)c1cccc(C(C)(C)NC(=O)Nc2ccc(OC)cc2)c1	-12%	2%	0%
79	CCOc1ncccc1C(=O)NNC(=O)CSc1ccc(Cl)cc1	0%	-8%	0%
80	O=C(CSc1nnc2c(n1)[nH]c1ccc(S(=O)(=O)N3CCOCC3)cc12)Nc1ccccc1Cl	-13%	-1%	0%
81	CC(C)(C)C(=O)Nc1nnc(SCc2cccc(F)c2)s1	71%[activator]	2%	-5%
82	COc1ccc([C@H]2CC(=O)C=C(c3cccc(C(C)C)c3)C2)cc1OC	25µM*	4%	-11%
83	C[C@@H](NC(=O)c1ncn(Cc2ccccc2)c1C(=O)N[C@H](C)c1ccccc1)c1ccccc1	-23%	11%	3%
84	CCCCNS(=O)(=O)NC(=O)C1=C(N2CCCC2)COC1=O	-8%	-11%	-4%
85	CC(C)N(C(=O)[C@H]1C[C@H](CC(=O)NCCCN(C)C)C(=O)N2CCc3c([nH]c4cc(CCC(=O)N(C)C)ccc34)[C@]12C)C(C)C	-5%	5%	0%
86	COc1ccc(C2=C3C(=O)OCC3Cc3ncn(Cc4ccccc4)c32)cc1 (configuration not stated)	-16%	1%	1%
